# Assay outcomes: PubChem BioAssay, several laboratories
# UCH37 inh: human UCH37 deubiquitinating enzyme inhibition; Q9Y5K5; purified proteasome/UCH37, Ub-AMC cleavage fluorescence; inhibition, % (concentration not given with the values); 330,000 tested, 0.33% active; AID 588478;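 active = mean of two replicates above 20%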;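 note: 0% = compound-free wells with enzyme and 100% = wells lacking proteasome; stock transfer was 100 nL into about 20 µL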
# Target sequence (Q9Y5K5 whole entry, looked up): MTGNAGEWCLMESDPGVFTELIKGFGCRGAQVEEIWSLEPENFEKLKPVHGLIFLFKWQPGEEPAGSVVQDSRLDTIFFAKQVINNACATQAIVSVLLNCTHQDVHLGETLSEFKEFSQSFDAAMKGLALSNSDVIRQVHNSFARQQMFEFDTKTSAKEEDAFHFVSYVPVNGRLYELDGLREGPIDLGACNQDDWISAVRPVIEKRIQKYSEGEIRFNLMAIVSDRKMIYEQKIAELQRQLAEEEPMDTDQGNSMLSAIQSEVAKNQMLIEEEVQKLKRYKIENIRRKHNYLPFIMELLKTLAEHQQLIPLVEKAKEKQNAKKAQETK
#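 Reagent: Ub-AMC substrate; assay system: Proteasome-associated human UCH37 deubiquitinase; controls: no-proteasome and no-compound wells; read-out: % inhibition of Ub-AMC cleavage fluorescence; timing: 30 min preincubation with enzyme, 25 min cleavage at room temperature; signal: AMC fluorescence from Ub-AMC cleavage, excitation 355 nm, emission 460 nm; buffer or medium: Tris-HCl pH 7.4 plus ovalbumin, ATP-MgCl2, DTT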
# Ecoli rRNA inh: selective bacterial rRNA inhibition in E. coli | E. coli WT GFP vs humanized-ribosome RFP mutants, fluorescence, 24 h; hits give low values; DMSO median 0, no signal -100 | GFP signal change (wild-type ribosome), % (concentration not given with the values) | 350,000 tested, 1.6% active | AID 720706;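 active = significant combined selectivity score with lowered wild-type GFP, culture density cut under 30%, mutant RFP and density less affected; inactive = any of these conditions unmet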; note: one replicate is shown; some compounds called inactive have numbers as strong as hits
# Beta apoptosis: beta cell apoptosis inhibition; INS-1E cytokine-induced death, ATP luminescence, 48 h; percent of positive-control rescue, neutral wells zero; protection from apoptosis, % (no concentration beside the values); 300,000 tested, 0.8% active;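 active = all replicates at 75% or more, or half of them and the mean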;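 note: 0% = cytokine-treated negative control wells and 100% = positive control rescue; higher means more ATP so stronger rescue from cytokine killing; wells of about 40 µL received 100 nL stock; the first replicate is given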
# T cruzi inh: T. cruzi replication inhibition; T. cruzi beta-gal in NIH3T3, luminescence, 90 h; inhibition, % (test concentration not listed); 300,000 tested, 1.4% active; AID 1885;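 active = mean inhibition across valid replicates above about 55%, limit read from the data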;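 note: signal also drops with host cell toxicity which is not excluded here; 0% = plate median of DMSO wells and 100% = zero luminescence signal; higher percent means less beta-gal luminescence so fewer parasites; stock transfer was 50 nL into about 50 µL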
# A1 inh: inhibitors of the anti-apoptotic protein A1, read as caspase activation | 330,000 tested, 0.066% active | caspase activation, % (concentration not given with the values) | MEF A1-2A-BIM cells, Caspase-Glo 3/7 luminescence, 3 h; percent of clofoctol response, vehicle zero | AID 2462;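 active = over half of replicate activation scores above 10%, or exactly half above 10 with the replicate mean above 10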;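 note: wells of about 30 µL received 50 nL stock; many hits fall short of the cut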
# FGF22 binding: FGF22 (human) thermal shift binding. recombinant FGF22 thermal shift, SYPRO orange fluorescence; percent of sucrose octasulfate shift, DMSO zero. 340,000 tested, 1.5% active. calls only at 9.99 µM. AID 651658. Q9HCT0;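 active = melting point raised past a set limit in the mean and every replicate; three in four hits are not shown here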
# Target sequence (Q9HCT0 whole entry, looked up): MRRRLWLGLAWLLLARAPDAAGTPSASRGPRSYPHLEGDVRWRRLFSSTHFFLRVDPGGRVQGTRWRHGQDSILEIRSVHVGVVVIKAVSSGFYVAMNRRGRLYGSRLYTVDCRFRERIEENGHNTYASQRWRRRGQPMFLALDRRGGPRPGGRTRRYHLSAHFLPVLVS
# MLL AF4-AF9 inh: blocks AF4 peptide binding to human AF9; P42568; 350,000 tested, 0.47% active; AlphaScreen, biotin-AF4 peptide binding to FLAG-AF9; inhibition, % at 10 µM;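 active = every replicate reaching a set inhibition limit, whatever the replicate mean, cut at about 25% in these data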;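 note: 0% = plate neutral control median and 100% = total signal loss; the record names both 10 and 1 µM as test concentration; the first replicate is given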
# Target sequence (P42568 whole entry, looked up): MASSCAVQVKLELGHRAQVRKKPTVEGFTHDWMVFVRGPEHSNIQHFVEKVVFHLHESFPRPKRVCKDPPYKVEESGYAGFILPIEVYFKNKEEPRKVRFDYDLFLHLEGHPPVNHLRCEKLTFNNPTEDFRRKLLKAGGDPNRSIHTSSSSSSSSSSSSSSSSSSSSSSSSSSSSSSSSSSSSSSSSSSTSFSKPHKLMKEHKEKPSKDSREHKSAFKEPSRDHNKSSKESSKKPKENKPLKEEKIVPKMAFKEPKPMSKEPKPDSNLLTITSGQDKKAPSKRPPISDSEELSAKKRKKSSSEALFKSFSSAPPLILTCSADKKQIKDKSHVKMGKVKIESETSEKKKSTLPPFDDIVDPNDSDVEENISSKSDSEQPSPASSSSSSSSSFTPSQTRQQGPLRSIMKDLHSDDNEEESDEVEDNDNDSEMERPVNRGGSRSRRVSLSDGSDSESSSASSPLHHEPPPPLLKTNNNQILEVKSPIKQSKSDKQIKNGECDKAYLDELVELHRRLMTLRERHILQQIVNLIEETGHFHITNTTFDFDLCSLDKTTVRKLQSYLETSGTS
# E coli growth: inhibitors of Escherichia coli growth. OD600, 23 h; hits give low values. OD600 absorbance (no concentration beside the values). 330,000 tested, 0.21% active. AID 1053175;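 active = OD600 absorbance below the run mean of sample wells minus 3.6 SD, in any replicate, cut at about 0.56 in these data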;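 note: stock transfer was 300 nL into about 60 µL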
# Ecoli rRNA inh OD600: second read-out of Ecoli rRNA inh, no call of its own (marks repeat the call); OD600 change, %; measured here: OD600 growth;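 optical density of the mix in the first replicate; 0 = DMSO median and -100 = no signal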
# Ecoli rRNA inh RFP: second read-out of Ecoli rRNA inh, no call of its own (marks repeat the call); RFP signal change, %; measured here: RFP humanized mutant strains;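 first replicate; 0 = DMSO median and -100 = no signal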
# * = called active by the depositor; i = inactive; · = not tested or not shown. A portion of the library. The share of hits here may be higher or lower than overall.
Molecule,UCH37 inh,Ecoli rRNA inh,Ecoli rRNA inh OD600,Ecoli rRNA inh RFP,Beta apoptosis,T cruzi inh,A1 inh,FGF22 binding,MLL AF4-AF9 inh,E coli growth
COC(=O)c1ccc(Cn2c(CN3CCOCC3)nc3ccccc3c2=O)o1,0.9,·,·,·,-4,0,-0.2,·,·,0.67
Cc1nc(N)nc(N/N=C/c2ccccc2)n1,·,7,0,0.1,0,-2,0.0,i,3.6,·
Cc1cccc(-n2c(SCC(=O)N3CCCC3)nnc2-c2ccccn2)c1C,-0.5,-2,-1,7.3,0,0,1.1,·,·,0.73
CC(=O)Nc1ccc(S(=O)(=O)Nc2ccc3c(c2)CCC3)cc1,1.1,0,-26,-1.4,·,2,0.8,i,-1.8,0.68
Cc1nccn1-c1c([N+](=O)[O-])c(=O)n(C)c2ccccc12,4.7,5,2,5.6,-1,10,1.1,i,-4.5,0.67
COc1ccc(C(=O)NC(=S)N2CCCCC2c2cccnc2)cc1OC (centres undefined),4.3,-5,5,-1.2,1,57*,0.2,i,-5.8,0.71
CN(C(=O)COc1cccc(C#N)c1)C1CCS(=O)(=O)C1 (centres undefined),1.5,·,·,·,-1,·,0.6,i,-0.8,0.66
Nc1cc(C(F)(F)F)ccc1NCCc1ccccn1,-0.5,9,1,5.4,3,3,0.2,i,9.8,0.68
COCCN(C(=O)c1ccccc1F)c1c(N)n(Cc2ccccc2)c(=O)[nH]c1=O,-0.3,19,11,6.9,-2,-24,-0.2,i,-2.3,0.66
CCOc1ccccc1NC(=O)c1cccc(NC(=O)C(C)C)c1,-0.8,-10,-3,4.8,-5,-11,0.8,i,0.1,0.7
COc1ccc(OCc2cc(C(=O)NCC(C)(C)N3CCOCC3)no2)c(Cl)c1,4.6,-4,-3,0.3,-7,3,-1.0,i,0.5,0.71
Cn1c(N)c(C(=O)CSc2nnc(C3CC3)n2-c2ccccc2)c(=O)[nH]c1=O,3.6,3,7,-2.6,3,·,0.4,i,-2.2,0.72

# The listing continues.
Molecule,UCH37 inh,Ecoli rRNA inh,Ecoli rRNA inh OD600,Ecoli rRNA inh RFP,Beta apoptosis,T cruzi inh,A1 inh,FGF22 binding,MLL AF4-AF9 inh,E coli growth
CCOC(=O)C1OC2(CCCC2)OC1C(=O)OCC (centres undefined),1.7,18,9,3.8,·,·,·,i,2.1,0.65
COP1(=O)C=C[C@H](N(Cc2ccccc2)S(=O)(=O)c2ccccc2[N+](=O)[O-])[C@@H](C)O1 (some centres undefined),2.1,-17,-12,-12,5,4,1.0,i,1.6,·
CCOC(=O)c1sc(NC(=O)CSc2nc(C)cc(C(F)(F)F)n2)c(C#N)c1C,5.6,·,·,·,-8,-23,0.4,·,·,0.69
CCn1cc(C(=O)N2CC(C)CC(C)C2)c(=O)c2cc(S(=O)(=O)N(C)C)ccc21 (centres undefined),2.1,-1,2,-1.5,-1,3,0.2,i,1.9,0.73
O=C1NC(=O)/C(=C/c2ccc(OS(=O)(=O)c3ccc(F)cc3F)cc2)N1,2.8,-26*,6.2*,8.6*,-3,-3,-0.4,i,·,0.65
COCCCNC(=O)c1ccc(CS(=O)(=O)c2ccc(Br)cc2)o1,1.6,3,7,-1.0,-2,-7,-0.6,i,-1.2,0.75
O=C(NCC1CCCO1)c1ccc2c3n(nc2c1)-c1ccccc1CO3 (centres undefined),-21,·,·,·,·,4,-9.0,·,·,0.7
CC(C)CC1(C)NC(=O)N(CCN2C(=O)c3ccccc3C2=O)C1=O (centres undefined),1.3,·,·,·,-15,-38,-0.4,·,·,0.67
O=S(=O)(Nc1ncccn1)c1ccc(NS(=O)(=O)c2cc(Cl)ccc2Cl)cc1,2.8,-4,-5,2.1,1,-3,1.1,i,-1.5,0.71
Cc1cccn2c(=O)c3cc(C(=O)N4CCOCC4)n(C)c3nc12,i,10,13,-0.5,-6,-1,0.7,i,0.4,0.72
Cc1cc(NC(=O)COC(=O)C2CCN(S(=O)(=O)c3c(Cl)cccc3Cl)CC2)no1,-7.5,·,·,·,-10,-2,0.3,·,·,0.74
COc1cccc(CNC(=O)C2CCN(S(=O)(=O)N3CCCCC3)CC2)c1,3.6,·,·,·,-3,4,0.2,·,·,0.64

# Arranged by SMILES length (largest number first): some entries from above.
Molecule,UCH37 inh,Ecoli rRNA inh,Ecoli rRNA inh OD600,Ecoli rRNA inh RFP,Beta apoptosis,T cruzi inh,A1 inh,FGF22 binding,MLL AF4-AF9 inh,E coli growth
Cc1cc(NC(=O)COC(=O)C2CCN(S(=O)(=O)c3c(Cl)cccc3Cl)CC2)no1,-7.5,·,·,·,-10,-2,0.3,·,·,0.74
CCOC(=O)c1sc(NC(=O)CSc2nc(C)cc(C(F)(F)F)n2)c(C#N)c1C,5.6,·,·,·,-8,-23,0.4,·,·,0.69
O=C(NCC1CCCO1)c1ccc2c3n(nc2c1)-c1ccccc1CO3 (centres undefined),-21,·,·,·,·,4,-9.0,·,·,0.7

# (listing goes on)
Molecule,UCH37 inh,Ecoli rRNA inh,Ecoli rRNA inh OD600,Ecoli rRNA inh RFP,Beta apoptosis,T cruzi inh,A1 inh,FGF22 binding,MLL AF4-AF9 inh,E coli growth
CCc1cccc(C)c1NC(=O)C1CCN(C(=O)c2ccc([N+](=O)[O-])cc2)CC1,1.4,1,2,1.3,-2,8,-0.5,i,2.2,0.71
O=C(CSc1nnc(CNC(=O)c2ccccc2F)o1)Nc1ccc2c(c1)OCCO2,5.7,·,·,·,2,-7,-0.1,·,·,0.72
CCCc1cc(N2CCCC(C(=O)NCC)C2)n2ncnc2n1 (centres undefined),0.3,3,9,0.5,-7,-13,0.9,·,·,0.68
Cn1cnc(C(=O)NC2CCN(C(=O)OC(C)(C)C)CC2)c1C(=O)NC1CCN(C(=O)OC(C)(C)C)CC1,0.6,17,14,-3.8,3,·,-1.8,i,·,0.69
Cc1cc(Nc2ccc(F)c(Cl)c2)n2nc(C)nc2n1,0.7,1,-5,0.2,-5,-2,-0.5,i,0.7,0.67
COc1ccccc1-c1oc2ccccc2c1C#CCO,-0.8,11,9,8.7,-3,·,-0.6,i,-8.7,0.68
CCn1c(SCc2ccc(C(=O)Nc3cc(C)cc(C)c3)cc2)nnc1-c1ccncc1,1.2,·,·,·,-6,-10,0.2,·,·,0.67
CN(NC(N)=O)c1ncc(C(F)(F)F)cc1Cl,0.7,·,·,·,0,-7,·,·,·,0.63
Cc1nnc(NC(=O)c2cccc(S(=O)(=O)N3CCc4ccccc43)c2)s1,27*,·,·,·,-7,5,1.0,·,·,0.71
CCCOC(=O)c1ccc2c(c1)C(=O)N(c1ccccc1)C2=O,0.7,·,·,·,·,-10,0.3,·,·,0.71
CCCn1nc2cc(C(=O)NCc3ccc(C)cc3)ccc2c1OCC,-40,-10,-3,2.9,-2,4,0.4,i,-0.2,0.71
O=C(/C=C/c1ccc([N+](=O)[O-])cc1)Nc1cccc(C(=O)Nc2ccccc2C(=O)O)c1,11,-1,-3,-1.3,1,40,0.0,i,2.3,0.66

# The list goes on:
Molecule,UCH37 inh,Ecoli rRNA inh,Ecoli rRNA inh OD600,Ecoli rRNA inh RFP,Beta apoptosis,T cruzi inh,A1 inh,FGF22 binding,MLL AF4-AF9 inh,E coli growth
CCc1ccccc1NC(=O)CC1SCCNC1=O (centres undefined),-0.4,8,-7,-0.1,-6,-11,-0.3,i,0.8,0.7
CC(C)Oc1ccc(C(=O)Nc2ccc(S(=O)(=O)N3CCN(C)CC3)cc2)cc1,6.8,-3,3,2.8,-3,0,0.2,i,-15,0.66
O=C(Nc1ccccc1C(F)(F)F)N1CCCC1c1cccnc1 (centres undefined),2.5,21,2,1.6,·,13,0.2,i,1.0,0.65
Cc1cccn2c(=O)c3cc(C(=O)NCCN4CCOCC4)c(=N)n(Cc4ccc(F)cc4)c3nc12,-382,-28,-39,-6.1,15,24,-1.3,i,-0.7,0.68
Cc1cc(C(=O)COC(=O)CNC(=O)c2ccco2)c(C)n1Cc1ccco1,6.0,·,·,·,·,1,0.7,·,·,0.67
CC1=Nc2ccc(C)cc2/C1=C/c1c(N)n2c(S(=O)(=O)C(C)C)nsc2nc1=O,2.5,-41,-54,-4.6,·,-13,·,·,4.6,0.72
CN(C)S(=O)(=O)c1ccc(S(=O)(=O)N(Cc2ccco2)Cc2ccccc2Cl)cc1,5.8,·,·,·,29,42,0.2,·,·,0.73
CCOc1ccc(CN(C)C(=O)c2cccnc2SC)cc1OC,1.2,7,-7,-3.0,-9,-2,0.6,i,-1.1,0.68
Cc1ccc(NC(=O)CCOc2ccccc2)c(C)c1,-1.4,·,·,·,-2,-13,1.5,·,·,0.67
CSc1nc(-c2ccco2)cc(C(F)(F)F)c1C#N,-51,·,·,·,5,-4,0.2,·,·,0.73
COc1cccc(C(CNC(=O)C(c2ccccc2)c2ccccc2)N(C)C)c1 (centres undefined),1.6,3,0,-1.0,-8,23,-0.3,i,3.5,0.72
CCOc1ccc(NC(=O)c2ccccc2C(=O)c2ccccc2)cc1OCC,-0.7,9,6,0.1,·,2,0.0,i,-3.7,0.69

# The list goes on.
Molecule,UCH37 inh,Ecoli rRNA inh,Ecoli rRNA inh OD600,Ecoli rRNA inh RFP,Beta apoptosis,T cruzi inh,A1 inh,FGF22 binding,MLL AF4-AF9 inh,E coli growth
Cc1cc(=O)oc2cc(NC(=O)c3cccc(Br)c3)ccc12,-47,25,27,7.5,43,5,-0.4,i,1.8,0.64
COC(=O)C1=C(C)N(Cc2ccccc2)C(=O)N[C@H]1c1cccs1,-0.1,5,6,2.8,-3,-5,0.6,i,-6.0,·
COc1cccc(C(O)c2nc3ccccc3n2C(C)C)c1OC (centres undefined),0.8,11,17,-1.8,-4,-1,-0.5,i,2.6,0.67
CC(=O)c1ccc(S(=O)(=O)Nc2cc3c(cc2C(C)=O)OCO3)cc1,5.4,10,23,4.1,-6,-9,0.5,i,-0.6,0.67
Cc1ccc(-c2nc(-c3ccncc3)no2)cc1Cl,-3.4,0,-2,-1.7,-5,-17,-4.7,i,1.8,0.66
Cc1ccc(S(=O)(=O)N(C)Cc2cc3cc(C)ccc3[nH]c2=O)cc1,-2.9,-2,3,-0.9,1,2,-0.2,i,-1.2,0.69
Cc1[nH]nc(SCC(=O)Nc2ccc(C#N)cc2)c1[N+](=O)[O-],·,0,14,-4.5,-11,-1,-1.1,i,-0.2,·
O=C(c1cccc(F)c1)N1CCN(c2cccc(Cl)c2)CC1,1.5,·,·,·,8,-9,0.5,·,·,0.7
CC(=O)c1c(O)c2ccccc2n(C)c1=O,-2.8,-1,11,2.0,2,-15,1.8,i,-1.4,0.7
NC(=O)N/N=C/C=C/c1ccc(F)cc1,·,5,-1,-1.9,-5,0,-0.6,i,0.6,·
O=C(CCCCC(=O)NCCCc1ccccc1)NCCCc1ccccc1,4.2,4,4,2.8,3,-6,0.2,i,-0.7,0.67
O=C1c2ccccc2CCC1C(O)c1ccccn1 (centres undefined),1.4,·,·,·,-5,-6,0.1,·,·,0.62
CSc1ccc(CN2CCC(Oc3cccc(C(=O)N4CCCC4)c3)CC2)cc1,3.0,1,2,-0.1,3,47,-0.2,i,2.8,0.7
Cc1ccc(S(=O)(=O)/N=C(/NC(=S)Nc2cccc(C)c2)c2ccccc2)cc1,2.4,·,·,·,-3,-9,2.4,·,·,0.67
